# Screens: PubChem BioAssay, several laboratories
# Vif A3G – HIV-1 Vif–A3G interaction blockers – biochemical, TR-FRET, GST-Vif 1-94, biotin-A3G peptide, dose response retest, primary screen (AID 1117319). 260,000 compounds, 0.57% hits. TR-FRET GST-Vif / biotin-A3G peptide binding; higher % means a stronger effect; test concentration not given here; strong numbers were not always called active. inhibition, %, or IC50 in µM where a hit was titrated;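 active = above the screen mean plus three standard deviations and confirmed in dose response; inconclusive = results disagree or hit not tested in dose response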;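 also: Vif residues 1-94 fused to GST binding biotinylated APOBEC3G peptide 110-148; 0% = full assay without inhibitor and 100% = GST in place of GST-Vif; retest series ran down from 100 µM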
# Beta apoptosis – blocks beta cell apoptosis | INS-1E cytokine-induced death, ATP luminescence, 48 h; percent of positive-control rescue, neutral wells zero | protection from apoptosis, % (concentration not given with the values) | 300,000 compounds, 0.8% hits | AID 435005;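 active = all replicates at 75% or more, or half of them and the mean; inconclusive = half reach 75% but not the mean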;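 also: 0% = cytokine-treated negative control wells and 100% = positive control rescue; higher means more ATP so stronger rescue from cytokine killing; wells of about 40 µL received 100 nL stock; the first replicate is given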
# RanGTP-Impb inh – disruptors of Ran-importin-beta complex formation – biochemical, FRET, CFP-Ran, YFP-importin-beta, homogeneous, primary screen | inhibition, % (concentration not given with the values) | cell-free CFP-Ran/YFP-importin-beta FRET ratio | 300,000 compounds, 1.1% hits;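 active = most replicates above 15%; inconclusive = exactly half above 15%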;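 also: 0% = DMSO wells and 100% = Ran loaded with GDP instead of GTP; wells of about 40 µL received 100 nL stock; the first replicate is given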
# Ecoli rRNA inh – inhibits bacterial ribosomal RNA function over humanized ribosomes | E. coli WT GFP vs humanized-ribosome RFP mutants, fluorescence, 24 h; hits give low values; DMSO median 0, no signal -100 | GFP signal change (wild-type ribosome), % (test concentration not listed) | 350,000 compounds, 1.6% hits;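 active = significant combined selectivity score with lowered wild-type GFP, culture density cut under 30%, mutant RFP and density less affected; inactive = any of these conditions unmet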; also: one replicate is shown; some compounds called inactive have numbers as strong as hits
# MLL AF4-AF9 inh – MLL-AF4/AF9 protein interaction inhibition; P42568; AlphaScreen, biotin-AF4 peptide binding to FLAG-AF9; inhibition, % at 10 µM; 350,000 compounds, 0.47% hits; AID 651704;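 active = every replicate reaching a set inhibition limit, whatever the replicate mean, cut at about 25% in these data; inconclusive = mean inhibition reaches that limit but some replicates miss it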;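 also: 0% = plate neutral control median and 100% = total signal loss; the record names both 10 and 1 µM as test concentration; the first replicate is given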
# Target sequence (P42568 whole entry, looked up): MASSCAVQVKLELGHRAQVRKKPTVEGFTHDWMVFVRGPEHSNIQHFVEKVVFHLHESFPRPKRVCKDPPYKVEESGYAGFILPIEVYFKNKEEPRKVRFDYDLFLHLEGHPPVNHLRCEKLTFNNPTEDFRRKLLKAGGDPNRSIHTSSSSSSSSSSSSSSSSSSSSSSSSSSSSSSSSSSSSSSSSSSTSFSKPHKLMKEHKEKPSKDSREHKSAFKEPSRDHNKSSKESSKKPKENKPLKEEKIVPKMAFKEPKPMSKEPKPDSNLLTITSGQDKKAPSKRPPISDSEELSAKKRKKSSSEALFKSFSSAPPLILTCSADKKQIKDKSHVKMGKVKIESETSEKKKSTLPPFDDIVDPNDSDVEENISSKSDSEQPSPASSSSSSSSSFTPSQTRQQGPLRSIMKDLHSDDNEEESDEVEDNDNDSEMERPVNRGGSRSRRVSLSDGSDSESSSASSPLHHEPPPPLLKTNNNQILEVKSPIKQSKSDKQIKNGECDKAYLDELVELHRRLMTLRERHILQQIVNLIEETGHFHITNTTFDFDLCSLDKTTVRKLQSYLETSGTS
# A1 inh – inhibitors of the anti-apoptotic protein A1, read as caspase activation | MEF A1-2A-BIM cells, Caspase-Glo 3/7 luminescence, 3 h; percent of clofoctol response, vehicle zero | caspase activation, % (test concentration not listed) | 330,000 compounds, 0.066% hits;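 active = over half of replicate activation scores above 10%, or exactly half above 10 with the replicate mean above 10; inconclusive = replicate mean below 10 yet half the replicates above 10; inactive = over half of replicates below 10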;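 also: wells of about 30 µL received 50 nL stock; many hits fall short of the cut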
# Calb FLC – C. albicans growth modulation with fluconazole; C. albicans CaCi-2 (fluconazole-resistant clinical isolate) + fluconazole, Alamar Blue growth, 48 h; growth inhibition, % (no concentration beside the values); 300,000 compounds, 0.57% hits;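 active = most replicates above 75%; inconclusive = exactly half above 75%; inactive = most below 75%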;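 also: all wells also contain fluconazole at 8 µg/ml as a sub-toxic cotreatment; 0% = median of DMSO wells and 100% = median of geldanamycin control wells; wells of about 8 µL received 7.5 nL stock; the first replicate is given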
# T cruzi inh – T. cruzi replication inhibition. 300,000 compounds, 1.4% hits. inhibition, % (no concentration beside the values). T. cruzi beta-gal in NIH3T3, luminescence, 90 h. AID 1885;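 active = mean inhibition across valid replicates above about 55%, limit read from the data; inconclusive = mean below that limit but half or more replicates reach it; inactive = mean below it, under half of replicates reach it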;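 also: signal also drops with host cell toxicity which is not excluded here; 0% = plate median of DMSO wells and 100% = zero luminescence signal; higher percent means less beta-gal luminescence so fewer parasites; stock transfer was 50 nL into about 50 µL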
# Ecoli rRNA inh OD600 – also measured in Ecoli rRNA inh; calls as there; OD600 change, %; measured here: OD600 growth;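 optical density of the mix in the first replicate; 0 = DMSO median and -100 = no signal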
# Ecoli rRNA inh RFP – further read-out of Ecoli rRNA inh, marked with its call; RFP signal change, %; measured here: RFP humanized mutant strains;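 first replicate; 0 = DMSO median and -100 = no signal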
# Numbers without * were called inactive; ? = inconclusive; nt = no result given. The list is partial (hit frequency here may not be typical).
SMILES,Vif A3G,Beta apoptosis,RanGTP-Impb inh,Ecoli rRNA inh,Ecoli rRNA inh OD600,Ecoli rRNA inh RFP,MLL AF4-AF9 inh,A1 inh,Calb FLC,T cruzi inh
FC(F)(F)c1ccc(/C=N/N2CCN(Cc3cccc4ccccc34)CC2)cc1,0%,3,0.2,nt,nt,nt,nt,0.5,-17,-8
O=C(COc1ccc(S(=O)(=O)NC2CCCCC2)cc1Cl)NCc1cccnc1,?,8,2.4,-3,-4,4.7,nt,-0.6,2,1
Cc1ccc(C)c(-c2csc(NC(=O)C3=COCCO3)n2)c1,-8%,77*,1.5,7,12,5.9,2.7,-0.1,-16,53
COc1ccc(C(=O)Nc2sc3c(c2C(=O)NCc2ccco2)CCCC3)cc1OC,-14%,6,3.1,nt,nt,nt,nt,-1.5,-5,36
FC(F)(F)c1cccc(CN2CCCCCC2)c1,15%,-3,-1.2,nt,nt,nt,nt,0.0,-2,-7
O=C(CCC(=O)N1CCN(S(=O)(=O)c2cccc(F)c2)CC1)c1cccs1,-1%,1,2.8,0,4,0.4,1.9,-0.4,15,-4
Cc1ccnc(SCC(=O)N2CCC(C(N)=O)CC2)n1,?,-5,1.7,nt,nt,nt,nt,-0.6,3,-11
COc1cc(NC(=O)CN(C)Cc2cccc(F)c2)c(C)cc1[N+](=O)[O-],-6%,-8,7.3,5,9,-1.5,2.9,0.2,3,18
Cc1cccc(NC(=O)CSc2nc3ccccc3c(=O)n2CC2CCCO2)c1 (centres undefined),nt,1,nt,-5,-5,-5.3,1.1,0.2,nt,nt
Fc1ccccc1N1CCN(C(c2ccncc2)c2nnnn2C2CCCC2)CC1 (centres undefined),4%,-4,-1.6,15,5,3.6,8.1,-1.2,-25,40
Cc1ccc(S(=O)(=O)N2CCN(Cc3cc(C(C)C)ccc3O)CC2)cc1,?,3,1.5,nt,nt,nt,nt,-0.3,-6,26
Cc1ccc(C(=O)NCC(=O)Nc2ccc(Cl)cc2)s1,2%,11,nt,-3,-1,-3.2,-2.0,-1.1,nt,nt
COc1ccc(NC(=S)N2CCN(S(=O)(=O)c3ccc(F)cc3)CC2)cc1OC,-1%,-1,7.3,-3,-7,4.2,0.1,0.3,3,-2
CCOC(=O)c1sc(NC(=O)c2c(CC)noc2C)nc1C,0%,9,nt,-3,5,0.9,-6.8,0.3,nt,nt
COc1ccc(NS(=O)(=O)c2ccc(OCC(=O)N3CCOCC3)cc2)cc1Cl,nt,13,1.1,-3,-3,3.9,-0.8,-0.1,3,-16
O=C(CSc1nnc(CNC(=O)c2ccco2)o1)NC1CCCC1,-2%,-3,-1.1,nt,nt,nt,nt,-0.8,7,9
COC(=O)CC(=O)CSc1nc2c(cc1C#N)CCCCC2,2%,3,8.0,2,0,3.3,-40,-0.9,-22,-1
O=C(COc1ccccc1)N1CCN(C(=O)c2ccccc2F)CC1,1%,-4,?,-18,-30,-2.8,-4.5,-0.2,-7,7
CCOCCCNc1c(CC)c(C)c(C#N)c2nc3ccccc3n12,nt,7,11,5,3,0.3,-3.2,-0.2,-10,23
CCOc1ccc2oc(C(=O)NC3CCN(Cc4ccccc4)CC3)c(C)c2c1,17%,-8,-1.8,-23*,-11*,0.2*,0.2,0.2,13,61*
COc1ccc(CCNS(=O)(=O)c2ccc(Cl)cc2)cc1OC,-1%,-2,2.4,-2,0,1.0,-1.6,2.0,3,2
Cc1ccc(CNC(=O)c2cc3ccccc3oc2=O)cc1,nt,1,-1.8,15,10,3.1,-0.8,0.3,-4,-10
Cc1cc(C)nc(NS(=O)(=O)c2ccc(NC(=O)CSc3ncn[nH]3)cc2)n1,3%,1,-1.6,13,9,4.4,-0.9,1.3,10,-1
COc1cccc(/C=C2\SC(=S)N(C(C)C(=O)NC3C=CS(=O)(=O)C3)C2=O)c1 (centres undefined),nt,-6,-3.9,-14,-11,-0.1,2.9,-0.4,-8,-9
CC(=O)OCCCN1c2ccccc2Nc2nnc(-c3ccccc3)cc21,-5%,4,7.1,nt,nt,nt,nt,-2.5,-1,5
SMILES,Vif A3G,Beta apoptosis,RanGTP-Impb inh,Ecoli rRNA inh,Ecoli rRNA inh OD600,Ecoli rRNA inh RFP,MLL AF4-AF9 inh,A1 inh,Calb FLC,T cruzi inh
Cc1ccc(NC(=O)Cc2ccccc2Cl)cc1S(=O)(=O)N(C)C,nt,-3,0.7,nt,nt,nt,nt,1.2,-14,-18
O=C(O)CSCC(=O)NCc1ccccc1Cl,2%,-1,?,1,7,-0.4,-0.2,1.5,4,-12
Cc1ccc2[nH]c(=O)c(C(c3nnnn3CCc3ccccc3)N3CCOCC3)cc2c1 (centres undefined),1%,nt,-2.3,nt,nt,nt,nt,2.7,2,-17
O=S(=O)(Cc1ccccc1)N1CCc2ccccc2C1,-4%,2,-1.4,nt,nt,nt,nt,0.7,-9,0
COc1ccc(CNc2ncc(-c3ccc(Cl)cc3)n2C)c(OC)c1OC,-9%,-2,-2.8,-7,-3,0.6,11,0.5,-2,-12
COc1cccc(CCNC(=O)COc2cccc3c2OC(C)(C)C3)c1,-3%,nt,1.2,-8,-9,1.9,0.2,0.7,1,-3
COC(CNC(=O)c1c[nH]c2ccc(S(=O)(=O)N3CCC4(CC3)OCCO4)cc2c1=O)OC,nt,-1,-10.0,nt,nt,nt,nt,0.4,0,-6
O=C(COC(=O)c1cc(=O)[nH]c2ccccc12)NCCc1ccccc1,nt,-2,nt,8,7,0.7,1.1,-0.1,nt,nt
Cc1ccc(-c2nc3ccccc3o2)cc1NC(=S)NC(=O)c1cc2ccccc2o1,?,6,?,22,23,8.3,1.9,0.3,-3,-9
O=C(C[n+]1ccccc1)Nc1ccccc1Br,-2%,2,0.9,34,30,5.0,-3.4,-0.2,-11,8
CCCOC(=O)Nc1nnc(CCC)s1,2%,-7,-3.2,13,6,0.2,nt,-0.1,-1,-11
Cc1nc(N2CCN(c3ccccc3)CC2)[nH]c(=O)c1Cc1cccc2ccccc12,-7%,-1,-1.5,nt,nt,nt,nt,0.3,0,-17
C=CC(C)(C)c1cc2cc3ccoc3cc2oc1=O,-4%,10,1.9,-11,-9,-3.0,1.6,0.2,-13,-29
O=C(NCC1CCN(Cc2cccc(Cl)c2)CC1)Nc1ccc(Cl)cc1,2%,9,0.3,-52,-79,-25,1.2,-0.4,-4,50
COc1ccc(/C=C/CN2CCN(Cc3ccc(C)cc3)C(CCO)C2)cc1 (centres undefined),7%,-6,0.8,11,1,-2.3,1.3,0.2,-7,38
N#Cc1ccc(NC(=O)COC(=O)CCc2nc3ccccc3c(=O)[nH]2)cc1,-12%,2,-1.0,5,9,-9.4,-14,-0.4,5,-8
O=C(CCS(=O)(=O)Cc1ccccc1F)NCCc1ccc(Cl)cc1,-8%,-6,-0.4,12,15,-0.5,-0.5,0.4,1,-18
CCN(CC)C(=O)CSc1nnc(-c2cccs2)n1Cc1ccco1,7%,2,11,nt,nt,nt,nt,-1.2,-3,-1
COc1ccc(/C(C)=N/NC(=O)Cc2c(C)nc(C)[nH]c2=O)cc1,-6%,-4,5.6,21,12,-5.3,-2.3,0.0,-12,-1
COc1ccc(CCN2CC(C(=O)Nc3nccs3)CC2=O)cc1OC (centres undefined),nt,3,nt,5,6,-2.6,-1.3,1.1,nt,nt
O=C(CN1C(=O)S/C(=C\c2ccccc2F)C1=O)NCCCn1ccnc1,nt,-3,1.8,-1,-6,-0.8,3.2,-1.4,2,-7
Cn1cc(C(=O)NCc2ccc(F)cc2)c(=O)c2cc(S(=O)(=O)N3CCCCC3)ccc21,2%,4,3.6,6,7,-0.9,1.2,1.2,-3,7
CCc1nc2ccc(C(=O)N3CCN(c4ccc(Cl)cc4)CC3)cc2nc1CC,-8%,-2,1.8,-31,-43,-6.3,0.5,0.0,17,5
C(=N\NC1=Nc2cccc3cccc1c23)/c1ccccn1,4%,nt,7.7,-44,-56,-13,13,nt,94*,65*
O=C(COc1ccccc1Cl)N1CCN(c2ccccn2)CC1,2%,-2,-0.5,-3,2,-7.7,2.8,-0.2,1,-6
SMILES,Vif A3G,Beta apoptosis,RanGTP-Impb inh,Ecoli rRNA inh,Ecoli rRNA inh OD600,Ecoli rRNA inh RFP,MLL AF4-AF9 inh,A1 inh,Calb FLC,T cruzi inh
CN1CCN(C(=O)C2=C[C@H](c3csc4ccccc34)C[C@H](OCCCCO)O2)CC1,nt,2,7.0,-5,-7,-3.2,1.7,0.0,-9,10
CCOC(=O)C1=C(COC(=O)C2CC(=O)N(c3ccc(CC)cc3)C2)NC(=O)NC1C (centres undefined),0%,-4,nt,11,11,-2.0,-0.9,0.0,nt,nt
C1=C(C(c2nnnn2C2CCCCC2)N2CCCCC2)COc2ccccc21 (centres undefined),-8%,-4,-2.0,nt,nt,nt,nt,1.2,-7,-10
CC(=N\Nc1ccc(Cl)cc1)/C(=N/O)C(=O)Nc1ccccc1,14%,-4,0.2,nt,nt,nt,nt,-1.1,5,3
COc1cc(C(C)=O)ccc1OCC(O)CN1CCN(c2c(C)cccc2C)CC1 (centres undefined),4%,-3,-2.2,-16,-12,1.2,-2.0,-0.8,6,37
Cc1ccc(Nc2nnc(SCC(=O)Nc3cccc(S(=O)(=O)NC4=NCCCCC4)c3)s2)cc1,13%,-4,0.8,nt,nt,nt,-4.8,0.2,?,-8
Nc1ccn(Cc2ccccc2)n1,-2%,-1,1.9,4,-6,-1.0,-4.4,0.9,5,38
CCCCOc1ccc(NC(=O)CCSc2nccn2C)cc1,-1%,-5,-1.7,-17,-17,-2.9,5.2,0.6,21,8
CN(Cc1nc2ccccc2c(=O)[nH]1)C(=O)c1ccc(NC(=O)CSc2nnnn2C)cc1,5%,1,nt,3,4,-2.5,-1.9,0.3,nt,nt
CCCCNC(=S)NCCN1CCN(C(=S)NCCCC)CC1,-8%,-4,-0.7,-6,-6,2.2,3.3,1.0,-11,17
CCOCCCn1c(SCc2nc3ccccc3s2)nc2ccccc2c1=O,nt,6,3.3,nt,nt,nt,0.6,-0.2,4,13
COc1ccc(C(=O)N/C(=C\c2cccc3ccccc23)C(=O)NCCc2c[nH]c3ccccc23)cc1OC,4%,-2,6.0,nt,nt,nt,nt,0.5,52,2
CCn1cc(C(=O)OCC(=O)NCc2ccccc2Cl)c(=O)c2ccc(C)nc21,nt,-2,2.4,-46,-62,-15,-13,-0.2,1,7
Cc1ccc(C(=O)Nc2nnc(-c3cccs3)s2)cc1C,-16%,-11,2.6,nt,nt,nt,nt,-1.6,1,-13
CCN(CC)CCn1c(C)nc2c(sc3nc4c(cc32)COC(C)(C)C4)c1=O,-3%,-4,-4.0,nt,nt,nt,nt,1.6,-1,13
O=C(c1ccco1)c1cn(CC(=O)N2CCCc3ccccc32)c2ccccc12,6%,-2,-3.4,nt,nt,nt,nt,0.4,-4,11
Cc1cccc(N2CCN(S(=O)(=O)c3ccc4c(c3)CCCN4C(=O)C3CCC3)CC2)c1C,nt,7,-2.2,5,-2,-1.6,0.4,-1.4,7,24
Cc1ccc(S(=O)(=O)/N=S(/c2ccccc2)C(C)C)cc1 (centres undefined),nt,-10,-0.8,6,4,2.4,-2.6,0.1,5,nt
